# Rango dissoc inh: qHTS Assay for Inhibitors of RanGTP induced Rango (Ran-regulated importin-beta cargo) - Importin beta complex dissociation; Biochemical FRET Rango-importin beta, RanGTP-induced dissociation; 0.071% of 340,000 active; Potency, µM (highest dose often 46.1 µM), for inactives: at the highest dose activity change, negative = inhibition; active means falling FRET ratio curve, often poorly fitted, with flat reads before Ran was added; inconclusive means other falling curves, or compound fluorescence or quenching; inactive means flat or rising ratio curve;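 note: potency is the fitted concentration of half-maximal effect; % of control where 0% means no effect; nearly all actives have a fitted effect of over 45% in size; -100% = wells without RanGTP and RCC1; the record marks most hits as doubtful in a second field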
#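 FRET read at 45 min, room temperature: inhibitors block the CFP/YFP signal rise when RanGTP (0.6 uM Ran, 2 mM GTP, 0.2 uM RCC1) frees Rango (0.1 uM) from importin beta (0.25 uM). Pre-read after 5 min compound exposure flags interference.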
# miR-21 FLuc: qHTS Assay for Modulators of miRNAs and/orActivators of miR-21 | AID 2288, 2010 | 340,000 tested, under 10 active | HeLa miR-21 FLuc reporter, luciferase, 48 h | Potency, µM (highest dose often 38.3 µM), without a hit: top-dose reporter change, positive = more light; active = well fitted rising curve with a large enough effect; inconclusive = small, poorly fitted or top-dose-only effect; inactive = no such curve, though single readings can be large or run the other way;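 note: % of control where 0% means no effect; miR-21 action dims this reporter so a rising signal means less miR-21 action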
#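 HeLa cells endogenously expressing miR-21, stably carrying CMV-driven firefly luciferase with a downstream miR-21 binding site, 2000 cells/well. Titrations up to approximately 40 uM, 48 hours; luciferase luminescence read.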
# GLA inh pH 4.5: qHTS Assay for Inhibitors of Human alpha-Galactosidase at pH 4.5; purified enzyme, 4-MU-alpha-Gal fluorescence, pH 4.5; 230,000 tested, under 10 active; AID 1467, 2008; activity change, negative = inhibition, % at 105 µM; inconclusive = small, poorly fitted or top-dose-only inhibition, or a rising curve; inactive = flat fitted curve, though single readings scatter; no compound was filed as active;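 note: 0% = full activity with enzyme and -100% = basal without enzyme; dose as in the result columns while the protocol names 77 µM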
# Target sequence (P06280 whole entry, looked up): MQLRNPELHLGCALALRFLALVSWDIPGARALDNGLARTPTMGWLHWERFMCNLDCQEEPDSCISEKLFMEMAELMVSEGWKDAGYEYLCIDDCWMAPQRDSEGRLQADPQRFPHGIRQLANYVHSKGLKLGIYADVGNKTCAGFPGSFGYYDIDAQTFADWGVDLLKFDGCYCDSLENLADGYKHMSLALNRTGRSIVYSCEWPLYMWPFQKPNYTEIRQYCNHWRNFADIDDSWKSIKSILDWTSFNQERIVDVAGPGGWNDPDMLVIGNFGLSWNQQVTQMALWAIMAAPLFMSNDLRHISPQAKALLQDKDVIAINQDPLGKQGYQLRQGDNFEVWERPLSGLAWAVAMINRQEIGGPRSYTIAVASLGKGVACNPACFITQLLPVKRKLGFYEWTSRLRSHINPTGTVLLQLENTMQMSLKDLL
# Rango-impB inh: qHTS Assay for Inhibitors of Rango (Ran-regulated importin-beta cargo) - Importin beta complex formation | Rango CFP/YFP FRET sensor + importin beta, 45 min | Potency, µM (series often up to 92.2 µM), for the others: at the highest dose inhibition of complex formation | 0.031% of 340,000 active; active = rising FRET ratio curve, often small or poorly fitted; inconclusive = mostly compound fluorescence or quenching in the first reads; inactive = flat curves in all reads;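 note: potency is the fitted concentration of half-maximal effect; 0% = DMSO wells and 100% = buffer wells lacking importin beta; nearly all actives have a fitted effect of over 15% in size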
#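 FRET biosensor (snurportin 1 IBB flanked by EYFP and cerulean), 50 nM, with compound 5 min, then 0.125 microM importin beta in PBS, 1 mM DTT, 0.02% Tween-20, 0.1% BSA. CFP/YFP ratio read after 45 min at room temperature; pre-read flags interference.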
# The depositor's hits bear a star; u = inconclusive; x = not tested or not shown; & = joins results of further samples. Not all compounds are listed; the hit share may differ from the screen's.
Rango dissoc inh,miR-21 FLuc,GLA inh pH 4.5,Rango-impB inh,SMILES
-0.9%,-10.5%,-0.5,-5.8%,N#Cc1c(N2C(=O)C3C4C=CC(C4)C3C2=O)sc2c1CCC2 (stereo not drawn)
-13.8%,0.6%,2.4,4.4%,CC(OC(=O)c1ccc(S(=O)(=O)N(C)c2ccccc2)cc1)C(=O)NCCC1=CCCCC1 (stereo not drawn)
u,-1.2%,-3.3,u,COc1cc(/C=C/C(=O)Nc2nc3ccc(S(=O)(=O)N(C)C)cc3s2)cc(OC)c1OC
-23.4%,6.6%,-4.8,1.2%,Clc1cccc(Cl)c1CON/C=N/c1ncnc2sccc12
u,x,x,-0.3%,Cc1ccc(S(=O)(=O)N2[C@@H](c3ccc(C#N)cc3)C(C(=O)O)=C[C@H]2CC2CCCC2)cc1
-6.3%,-6.3%,-7.1,-5.7%,CCn1c(SCC(=O)N/N=C/C=C/c2ccco2)nnc1-c1ccccc1
5.0%,1.3%,x,-1.5%,CNS(=O)(=O)c1cccc(C(=O)OCC(=O)NC2CCCC2)c1
0.3%,1.3%,0.1,1.2%,CCC(CC)C(=O)NCCNC(=O)C(CC)CC
1.7%,1.2%,x,-1.0%,CSCC[C@H](NC(=O)C1CCN(C(=O)[C@@H](N)Cc2ccccc2)CC1)C(=O)O
-12.6%,-48.4%,7.1,u,CCOC(=O)c1ccc(NC(=O)N2CCCCC2)cc1
-5.0%,15.9%,-4.3,2.3%,CC(Oc1ccc(Cl)cc1Cl)c1nc(-c2ccc(NC(=O)c3ccncc3)cc2)no1 (stereo not drawn)
-13.1%,2.1%,-2.0,-0.9%,C/C(=N/OC(=O)c1c(-c2c(Cl)cccc2Cl)noc1C)c1cnccn1
-7.3%,16.2%,x,u,O=[N+]([O-])c1ccc(-c2ccc(/C=N/n3cnnc3)o2)c(Br)c1
0.3%,2.8%,x,1.5%,CCOc1ccc(CCNC(=O)CCc2nnc3ccc(N4CCCCC4)nn23)cc1OCC
-23.7%,0.3%,5.4,-2.2%,CC(Sc1nnnn1C)C(=O)NC(=O)NC1CCCCC1 (stereo not drawn)
-1.6%,x,x,0.2%,COc1ccc(CNCCS(=O)(=O)NC2CCCCC2)cc1
6.4%,-2.6%,-11.6,-2.1%,O=C(C1CCN(S(=O)(=O)c2cnc[nH]2)CC1)N1CCN(Cc2ccc3c(c2)OCO3)CC1
-18.8%,0.9%,1.7,-1.7%,Cc1ccc(COc2ccsc2C(=O)NNC(N)=S)cc1
1.8%,-2.2%,0.4,-0.6%,COc1cc(C(=O)NCC2CCCO2)cc(OC)c1OC (stereo not drawn)
1.2%,-9.1%,1.6,0.0%,CC1=Nn2c(nnc2-c2ccc(F)cc2)SC1
33.1%,-3.6%,3.2,1.8%,Cc1cc(C(=O)N2CCN(S(C)(=O)=O)CC2)cs1
6.1%,-1.8%,-4.6,-0.9%,CCOC(=O)C(NC(C)=O)C(=O)Nc1ccc(C(C)C)cc1 (stereo not drawn)
4.9%,x,x,0.5%,COc1ccc([N+](=O)[O-])cc1NC(=O)C(C)OC(=O)CN1C(=O)C2CC=CCC2C1=O (stereo not drawn)
0.9%,9.9%,x,-1.5%,CCCSCCCNC(=O)c1ccccc1NC(=O)C1=CSCCO1
-15.1%,-2.4%,-3.8,u,O=C1NN(c2ccc(Cl)cc2)C(=O)/C1=C\c1ccc(-c2cccc(C(=O)O)c2)o1
-23.2%,-21.0%,2.9,u,CC1Cc2ccccc2N1Cc1cc(=O)n2ccsc2n1 (stereo not drawn)
0.6%,-5.4%,-2.7,0.4%,CC1CCN(S(=O)(=O)c2ccc(N/N=C(/C#N)C(N)=O)cc2)CC1
u,-0.2%,-4.4,u,CCOC(=O)N1CCN(c2nc3ccccc3nc2C(C#N)C(=O)NCCc2ccccc2)CC1 (stereo not drawn)
5.2%,17.6%,-0.8,-2.8%,COc1cc(C(=O)NCCc2c[nH]c3ccccc23)ccc1OCc1c(C)noc1C
-5.7%,0.2%,x,-4.2%,Cc1c(CC(=O)N2CCN(C(=O)C3COc4ccccc4O3)CC2)c(=O)oc2c(O)c(O)ccc12 (stereo not drawn)
2.2%,0.0%,-8.7,0.3%,COc1ccnc(-n2cccc2/C=N/O)c1C#N
-8.8%,1.6%,-1.1,-1.6%,COc1ccc(C(C(=O)NC(C)(C)C)N(Cc2cccs2)C(=O)CCC(=O)Nc2cc(C)on2)cc1 (stereo not drawn)
11.5%,-20.8%,-6.1,-1.5%,CC(=O)c1cccc(NC(=S)NC(=O)CC(C)C)c1
-5.0%,1.0%,-4.9,-2.4%,COc1cccc(NC(=O)CSc2nnc(CN3CCOCC3)n2C)c1
2.7%,-1.7%,-4.8,0.3%,COCCNc1nc2nonc2nc1N1C[C@H]2CC[C@H]1C2
-8.2%,-0.2%,x,-3.7%,COCCn1c(=NC(=O)CCS(=O)(=O)c2ccccc2)sc2cc(C(=O)OC)ccc21
9.3%,-29.3%,-0.5,0.2%,O=C(NCCCN1CCCC1=O)c1csc2ccccc12
1.4%,x,x,-2.2%,Cc1cc2ccccc2nc1-c1ccccc1F
-3.2%,-0.1%,-1.2,-5.6%,O=C(NC(=O)c1ccccc1)OCC1CCCN2CCCCC12 (stereo not drawn)
-5.0%,-2.3%,6.6,-1.9%,CCC(CC)NC(=O)COC(=O)c1ccc(OCC(=O)Nc2ccccc2OC)c(OC)c1

# Entries shown so far containing a nitro group on carbon, in the order listed:
Rango dissoc inh,miR-21 FLuc,GLA inh pH 4.5,Rango-impB inh,SMILES
-7.3%,16.2%,x,u,O=[N+]([O-])c1ccc(-c2ccc(/C=N/n3cnnc3)o2)c(Br)c1
4.9%,x,x,0.5%,COc1ccc([N+](=O)[O-])cc1NC(=O)C(C)OC(=O)CN1C(=O)C2CC=CCC2C1=O (stereo not drawn)

# Continuation.
Rango dissoc inh,miR-21 FLuc,GLA inh pH 4.5,Rango-impB inh,SMILES
8.0%,x,x,0.0%,NC(=O)C(CCCCN1CCCCC1)(c1ccccc1)c1ccccc1
0.4%,4.6%,x,-0.2%,CCN(CC)c1nc2c(c(=O)n(C)c(=O)n2C)n1CCCc1ccccc1
0.4%,1.1%,12.0,1.1%,CN(C)CC1(c2ccccc2)CCCC1
13.2%,-41.7%,-16.7,0.2%,Cc1nc(NCc2ccccc2)sc1C(=O)Nc1ccccc1
-9.4%,-4.3%,-3.6,2.1%,COc1ccc(NC(=O)c2nc[nH]c2C(=O)Nc2ccccc2C)cc1
-12.3%,-9.4%,-1.3,6.0%,CCCNc1nc(NCC)nc(OC)n1
-5.4%,-18.1%,15.0,0.6%,N/C(Cn1cncn1)=N\NC(=O)C(=O)Nc1ccc(Cl)cc1Cl
24.1%,x,x,-0.2%,O=[N+]([O-])c1ccc(CSc2ccc(S(=O)(=O)N3CCCCC3)cn2)cc1
10.2%,-1.2%,-3.0,6.9%,CCCn1c(NCc2ccco2)nc2c1c(=O)n(C)c(=O)n2C
-6.1%,19.1%,2.6,-0.5%,Cc1ccc(-c2nc(P(=O)(c3ccccc3)c3ccccc3)c(N3CCOCC3)o2)cc1
-2.2%,-1.4%,2.9,-2.0%,O=[N+]([O-])c1cc(C(F)(F)F)cc([N+](=O)[O-])c1NCCCNc1ccc([N+](=O)[O-])c2cccnc12
0.4%,-3.4%,6.0,0.4%,S=C(Nc1ccc(Cl)c(Cl)c1)NN1CCOCC1
12.5%,-2.8%,-1.5,-0.7%,COc1ccc(CCNC(=O)C(=O)N2CCCCC2)cc1OC
-9.1%,-11.5%,-13.2,4.6%,Fc1ccc(-c2cc(C(F)(F)F)nc(NCc3cccs3)n2)cc1
0.9%,7.8%,-17.5,-1.5%,COc1ccc(NC(=O)COC(=O)/C=C/C(=O)OCC(=O)Nc2ccc(OC)c(Cl)c2)cc1Cl
-3.4%,-3.5%,12.5,1.3%,CCOC(=O)C1Cc2ccccc2CN1 (stereo not drawn)
-7.9%,-9.4%,-8.8,u,CC(=O)c1ccc2noc(-c3ccc(Cl)cc3)c2c1
-10.3%,-22.1%,9.3,-2.0%,CCN(CC)C(=O)COc1ccc2oc(-c3ccco3)cc(=O)c2c1
1.3%,-2.3%,x,-2.4%,Cc1cccc(NC(=O)CCc2c(C)nn(-c3ccc(N4CCCCC4)nn3)c2C)c1
18.7%,-1.6%,-1.2,-1.2%,O=C(NCc1ccccn1)C1COc2ccccc2O1 (stereo not drawn)
-16.9%,-6.2%,-2.5,-0.6%,COc1ccc(NC(=O)CC2Nc3cc(C)c(C)cc3NC2=O)c([N+](=O)[O-])c1 (stereo not drawn)
-6.3%,-2.8%,-3.1,0.5%,Cc1ccc(C(=O)N/C(=C\c2cccs2)C(=O)NCCCn2ccnc2)cc1
-14.4%,x,x,-1.0%,CCCCCCCCNS(=O)(=O)CCNCCCC
6.9%,x,x,-2.8%,Cc1c(C)[n+](=O)c(C)c(C)n1[O-]
-7.0%,-3.0%,-5.5,1.0%,CC(=O)c1c(C)oc(C)c1CSCc1ccc(C(=O)O)o1
-8.1%,x,x,-2.1%,COc1ccccc1CCC(=O)OCC(=O)Nc1cccc(S(=O)(=O)N2CCCCC2)c1
13.4%,-1.5%,-8.6,0.0%,CCOc1nc(Nc2ccc(OC)c(Cl)c2)nc(OCC)n1
7.0%,-0.4%,x,-1.2%,Cc1ccccc1-n1ncc2c1CC(C)(C)CC2NC(=O)c1ccncc1 (stereo not drawn)
5.7%,x,x,-3.8%,CCN(CC)C(=O)c1ccc(C(=O)Nc2ccc(F)cc2)cc1
10.8%,-3.1%&-3.0%,x,2.8%,Cc1noc(C)c1S(=O)(=O)N(CC(=O)NCCc1ccccc1)c1ccc(C(C)C)cc1
-2.5%,-7.1%,x,-5.6%,CCOc1ccc(Nc2nc(N(C)c3ccccc3)nc(N)c2[N+](=O)[O-])cc1
-3.1%,-11.6%,x,5.1%,COc1cccc(NC(=O)c2c(C)nn(-c3ccccc3)c2Cl)c1
-7.6%,-38.7%,-5.6,1.2%,COc1ccc2[nH]c(C(=O)NCCc3ccccc3)cc2c1
u,12.8%,-12.3,u,CCCCn1nc(NC(=O)c2cccs2)c2cc3cc(OC)ccc3nc21
-3.0%,16.6%,x,u,COc1cccc2c1OCC(CN1CCN(Cc3ccccc3F)C(CCO)C1)=C2 (stereo not drawn)
1.0%,x,x,-1.9%,O=C(NCCN1CCOCC1)c1c(O)nc2sccn2c1=O
x,-4.7%,-2.4,x,O=C1N=C(C=c2ccc(=Cc3[nH]c(=O)[nH]c3O)cc2)C(=O)N1
20.0%,x,x,-4.5%,O=C(CN1CCN(S(=O)(=O)c2ccc(F)c(F)c2)CC1)Nc1ccccc1C(=O)NC1CC1
-26.1%,-38.4%,-9.0,2.2%,Cc1ccc(-c2cc3ncc(C#N)c(N)n3n2)cc1
5.0%,-7.4%,-4.3,0.4%,O=[N+]([O-])c1c(C(Cl)Cl)nn(-c2ccccc2)c1N1CCCC1
5.7%,-19.0%,-3.3,u,Cc1ccccc1OCC(O)Cn1c(NCc2ccco2)nc2c1c(=O)[nH]c(=O)n2C (stereo not drawn)
18.1%,x,x,-1.4%,Cc1ccccc1OCCC(=O)NNC(=O)COc1cccc(F)c1
-21.2%,2.1%,0.7,-0.2%,COc1cccc(CNC(=O)C(=O)NCCc2ccc(OC)c(OC)c2)c1
9.7%,x,x,2.4%,Cc1ccccc1Nc1nc(N)nc(COC(=O)[C@@H](NC(=O)c2ccccc2Cl)C(C)C)n1
-2.0%,x,x,-0.1%,CCN(CC(=O)NCc1cccs1)C(=O)c1ccc(S(=O)(=O)Nc2ccccc2OC)cc1
-6.9%,-10.8%,-1.1,-1.0%,CCN(CC)CC(=O)c1c[nH]c2ccc(C)cc12
8.8%,-2.5%,x,-0.1%,CC(C)(C)n1nc2c(c1NC(=O)c1c(F)cccc1F)CS(=O)(=O)C2
3.7%,x,x,4.0%,Cc1c(C(=O)NCC2CCCO2)oc2ccc(Br)cc12 (stereo not drawn)
1.0%,x,x,-0.7%,Cc1cc(C)c(S(=O)(=O)NCC(c2ccco2)N2CCc3ccccc3C2)c(C)c1 (stereo not drawn)
